Assay outcomes (PubChem BioAssay)
Cruzain Triton = blocks cruzain activity in presence of Triton detergent. P25779. purified cruzain, Z-FR-AMC fluorescence, 0.01% Triton. Potency, µM, for the others: max response, negative = inhibition, usual class: inhibitors. 200,000 compounds, 0.43% hits. AID 1478; active = well fitted curve in the direction sought with a large enough effect; inconclusive = small, poorly fitted or top-dose-only effect, or another doubt; inactive = no such curve, though single readings can be large; an effect the other way counts as inactive or inconclusive;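 also: plate controls were neutral wells for no effect and buffer without enzyme for full effect; nearly all actives have a fitted effect of over 40% in size; top concentration of the series not given in the record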
Target sequence (P25779 123-467 limits assumed): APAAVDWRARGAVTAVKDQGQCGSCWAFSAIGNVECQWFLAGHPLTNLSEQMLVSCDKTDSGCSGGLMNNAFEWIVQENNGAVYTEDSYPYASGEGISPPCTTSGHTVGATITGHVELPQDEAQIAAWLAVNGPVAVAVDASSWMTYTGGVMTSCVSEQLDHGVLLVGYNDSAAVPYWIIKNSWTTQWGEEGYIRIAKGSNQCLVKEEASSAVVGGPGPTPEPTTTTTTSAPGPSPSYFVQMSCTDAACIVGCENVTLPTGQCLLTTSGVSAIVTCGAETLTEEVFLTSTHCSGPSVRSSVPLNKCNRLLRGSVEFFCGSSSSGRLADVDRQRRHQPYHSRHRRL
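Sodium acetate buffer (100 mM, pH 5.5) containing 5 mM DTT and 0.01% Triton X-100 hosted 1.5 nM cruzain and test compound for 15 min at room temperature. Cleavage of 2 uM Z-FR-AMC was then tracked by fluorescence.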
2A StopGo = lowers the luciferase signal of an FMDV 2A StopGo reporter; human cells with a luciferase reporter of 2A StopGo recoding; control for the full effect not named in the record; Potency, µM (doses to about 57.9 µM), for inactives: top-dose signal change, negative = less light; 410,000 compounds, 1.2% hits; active = well fitted falling curve with a large enough effect; inconclusive = small, poorly fitted or top-dose-only effect; inactive = no such curve, though single readings can be large or run the other way; tested in HEK293T cells; also: % is scaled to controls: 0 for no effect and ±100 for the full control effect; nearly all actives have a fitted effect of over 45% in size; luciferase light after 4 h
Cruzain inh noDet = cruzain (T. cruzi) inhibition without detergent; P25779; purified cruzain, Z-FR-AMC fluorescence, no detergent; Potency, µM, for inactives: max response, negative = inhibition, most hits filed as inhibitors; 200,000 compounds, 2.3% hits; active = well fitted curve in the direction sought with a large enough effect; inconclusive = small, poorly fitted or top-dose-only effect, or another doubt; inactive = no such curve, though single readings can be large; an effect the other way counts as inactive or inconclusive;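 also: plate controls were enzyme without inhibitor for no effect and buffer without enzyme for full effect; nearly all actives have a fitted effect of over 40% in size; top concentration of the series not given in the record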
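Detergent-free condition (0.00005% Triton X-100) in acetate buffer pH 5.5 with DTT. 1.5 nM enzyme and compound were pre-mixed 15 min, then 2 uM Z-FR-AMC substrate added; reaction progress from fluorescence change between first and third reads (60 s).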
RE007 growth inh = less growth of the S. pombe RE007 Vpr strain; S. pombe RE007 Vpr strain, BacTiter-Glo ATP luminescence, 24 h; control for the full effect not named in the record; Potency, µM (highest dose often 92.2 µM), without a hit: at the highest dose activity change, negative = less growth; 360,000 compounds, 0.21% hits; AID 651644; active = well fitted falling curve with a large enough effect; inconclusive = small, poorly fitted or top-dose-only effect; inactive = no such curve, though single readings can be large or run the other way;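 also: % is scaled to controls: 0 for no effect and ±100 for the full control effect; nearly all actives have a fitted effect of over 50% in size; the assay follows cell death caused by Vpr and the record does not say whether a fall means rescue or toxicity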
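Fission yeast RE007 carrying one integrated HIV-1 vpr copy, seeded at OD 0.01 in PMG+AL medium with 23 nL pinned compound. Grown 24 h at 30 degrees; viability read by BacTiter-Glo luminescence after 5 min.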
Lassa entry inh = inhibitors of Lassa virus binding or cell entry; Lassa virus pseudotype entry inhibition, cell reporter; control for the full effect not named in the record; Potency, µM (titrated, usually from 37.9 µM), for inactives: top-dose activity change, negative = inhibition, actives largely listed as inhibitors; 300,000 compounds, 1.2% hits; active means well fitted inhibition curve with a large enough effect; inconclusive means small, poorly fitted or top-dose-only effect, or effect the other way; inactive means flat fitted curve, though single readings scatter; tested in HEK293 cells; also: % is scaled to controls: 0 for no effect and ±100 for the full control effect; nearly all actives have a fitted effect of over 50% in size; luciferase read-out
NS1 function inh = blocks influenza NS1 protein function; S. cerevisiae slowed by influenza A NS1, growth recovery by OD600; Potency, µM (doses to about 46.1 µM), without a hit: at the highest dose activity, positive = more growth; 270,000 compounds, 0.4% hits; AID 2326; also: actives are rising curves; nearly all actives have a fitted effect of over 50% in size
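Compounds were scored for reversing the slow growth caused by influenza A NS1 in S. cerevisiae, measured by optical density at 600 nm. Assay medium contained 2% galactose at pH 6.0; NS1-free yeast of the same strain were the positive control.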
Marburg entry inh = inhibitors of Marburg virus binding or cell entry | Marburg virus pseudotyped entry inhibition, cell reporter; control for the full effect not named in the record; about a third of the inactives were read at about 46 µM | Potency, µM (doses to about 37.8 µM), inactives show at the top dose activity change, negative = inhibition, actives largely listed as inhibitors | 300,000 compounds, 1.8% hits; active = well fitted inhibition curve with a large enough effect; inconclusive = small, poorly fitted or top-dose-only effect, or effect the other way; inactive = flat fitted curve, though single readings scatter; tested in HEK293 cells; about a fifth of its hits are not listed in these tables; also: % is scaled to controls: 0 for no effect and ±100 for the full control effect; luciferase read-out
SARS PLpro yeast = SARS-CoV PLP inhibition in yeast | S. cerevisiae expressing SARS-CoV PLpro, growth rescue; control for the full effect not named in the record | Potency, µM (doses to about 32.9 µM), for inactives: at the highest dose activity, positive = growth rescue | 330,000 compounds, 0.19% hits; also: 0% is about no effect; nearly all actives have a fitted effect of over 55% in size; growth read by luminescence after 48 h
Active calls of the source: *; & = joins results of further samples; [ ] = dose if it differs, or a comment. Unless noted, calls follow the shape of the dose curve; as a rule, active means well fitted rising curve with a large enough effect; inconclusive means small, poorly fitted or top-dose-only effect; inactive means no such curve, though single readings can be large or run the other way. Potency is read from the fitted curve at half-maximal effect.

`COc1ccc(C2CCCN2C(=S)Nc2cccc(C)c2)cc1OC` (stereo not given) gave 2A StopGo 8%, RE007 growth inh 5%, Lassa entry inh 18%[46.1 µM], Marburg entry inh -2%[46.1 µM] and SARS PLpro yeast -5%.
N=c1c2c(-c3ccccc3)c(-c3ccccc3)oc2ncn1CCCN1CCOCC1 was read as Cruzain Triton -0.7%, 2A StopGo inconclusive, Cruzain inh noDet 1%, RE007 growth inh -14%, Lassa entry inh inconclusive, NS1 function inh -18%, Marburg entry inh 8.2µM* and SARS PLpro yeast 0%.
CC(=O)Nc1ccc(C23CC4CC(CC(C4)C2)C3)cc1 was read as 2A StopGo 31%[activator], RE007 growth inh 10%, NS1 function inh -12% and SARS PLpro yeast 1%.
`COCCn1c(=O)[nH]c2cc(C(=O)N3CCN(c4ccccc4)CC3)ccc2c1=O` gave Cruzain Triton -0.6%, 2A StopGo -28%&-2%, Cruzain inh noDet -2%, RE007 growth inh -10%, Lassa entry inh inconclusive, NS1 function inh 6%, Marburg entry inh 6%&7%[46.1 µM] and SARS PLpro yeast 12%.
Screening NS(=O)(=O)c1ccc(NC(=O)c2ccc3c(c2)CCCC3)cc1 returned 2A StopGo 12%, RE007 growth inh -3%, NS1 function inh 9% and SARS PLpro yeast -4%.
Screening CC(=O)Nc1ccc(S(=O)(=O)N2CCc3cc4c(cc3C2C)OCCCO4)cc1 (stereo not given) returned 2A StopGo -18%, RE007 growth inh 15%, Lassa entry inh inconclusive, NS1 function inh -4%, Marburg entry inh 3%[46.1 µM] and SARS PLpro yeast 7%.
Screening CC1CCCC(C)N1C(=O)CSCc1ccc(Cl)cc1 (stereo not given) returned Cruzain Triton 0.6%, 2A StopGo 0%, Cruzain inh noDet -4%, RE007 growth inh 7%, Lassa entry inh inconclusive, NS1 function inh -13%, Marburg entry inh -12% and SARS PLpro yeast 6%.
`COc1ccc(-c2nn(-c3ccccc3)cc2CNC(=O)c2cccc([N+](=O)[O-])c2)cc1` gave Cruzain Triton -2.5%, 2A StopGo 4%, Cruzain inh noDet inconclusive, RE007 growth inh -9%, Lassa entry inh 3%, NS1 function inh 8%, Marburg entry inh 4%[46.1 µM] and SARS PLpro yeast 9%.
`Cc1cc(NC(=O)Nc2ccc(Cl)cc2)n(C)n1` gave 2A StopGo 13%, RE007 growth inh -9%, NS1 function inh -5% and SARS PLpro yeast -1%.
Screening CS(=O)(=O)N(CC(=O)NCCSCc1ccco1)c1ccc2c(c1)OCO2 returned 2A StopGo 9%, RE007 growth inh -4%, Lassa entry inh -3%[46.1 µM], NS1 function inh 1%, Marburg entry inh 24%[46.1 µM] and SARS PLpro yeast -1%.
For CNC(=S)N(Cc1ccco1)Cc1cc2cc(OC)ccc2[nH]c1=O the results were 2A StopGo inconclusive, RE007 growth inh -3%, Lassa entry inh -13%, NS1 function inh 4%, Marburg entry inh -24%[46.1 µM] and SARS PLpro yeast 0%.
COCCn1c(SCC(=O)N2CCCc3ccccc32)nc2c(c1=O)SC(C)C2 (stereo not given) was read as Cruzain Triton -1.6%, 2A StopGo -23%, Cruzain inh noDet -2%, RE007 growth inh 11%, NS1 function inh -17% and SARS PLpro yeast -3%.
For CN(C)c1nc(-c2ccccc2)c2cnn(Cc3ccccc3)c2n1 the results were Cruzain Triton inconclusive, Cruzain inh noDet inconclusive, RE007 growth inh -6%, Lassa entry inh -23%, NS1 function inh -50%, Marburg entry inh inconclusive and SARS PLpro yeast -16%.
CCCCn1c(O)c(C(CC)=NCCCn2ccnc2)c(=O)[nH]c1=O was read as 2A StopGo -7%, RE007 growth inh 2%, NS1 function inh 0%, Marburg entry inh 1% and SARS PLpro yeast 0%.
For O=c1[nH]c(/C=C\c2ccc(O)c(Cl)c2)nc(O)c1[N+](=O)[O-] the results were 2A StopGo -18%, RE007 growth inh 5%, NS1 function inh 3% and SARS PLpro yeast -2%.
For COc1ccc(-n2nc(C(=O)NCC(=O)N3CCN(Cc4ccccc4)CC3)c3ccccc3c2=O)cc1 the results were 2A StopGo -29%, RE007 growth inh 13%, Lassa entry inh inconclusive, NS1 function inh -26%, Marburg entry inh inconclusive and SARS PLpro yeast -3%.
`CC1CN(Cc2ccco2)C(=S)N(c2ccccc2)C1=O` (stereo not given) gave 2A StopGo -14%, RE007 growth inh -7%, Lassa entry inh 6% and Marburg entry inh 18%.
Screening C/C(=N/NC(=O)Cn1nc2ccccc2n1)c1ccc(F)cc1 returned Cruzain Triton -1.8%, 2A StopGo 13%, Cruzain inh noDet 1%, RE007 growth inh -1%, Lassa entry inh -2%, NS1 function inh 12%, Marburg entry inh 1% and SARS PLpro yeast 2%.
Screening Cc1ccc(S(=O)(=O)N2CCC(c3nc4c(nnn4Cc4ccccc4)c(=O)[nH]3)CC2)cc1 returned 2A StopGo -16%, RE007 growth inh 10%, Lassa entry inh inconclusive, NS1 function inh 5%, Marburg entry inh inconclusive and SARS PLpro yeast 1%.
Screening Cc1ccccc1-c1nnc(SCc2ccccc2F)o1 returned Cruzain Triton -3.4%, 2A StopGo 35%[activator], Cruzain inh noDet 3%, RE007 growth inh -11%, Lassa entry inh -6%, NS1 function inh -48%, Marburg entry inh inconclusive and SARS PLpro yeast -22%.
For O=C(Nc1nn[nH]n1)c1cc(-c2ccc(Cl)c(Cl)c2Cl)nc2ccccc12 the results were 2A StopGo -13%, RE007 growth inh 2%, NS1 function inh 15% and SARS PLpro yeast 0%.
Screening Cc1cc(C(=O)OCC(=O)NC(C)(C)C)c2ccccc2n1 returned Cruzain Triton 1.8%, 2A StopGo -4%, Cruzain inh noDet -1%, RE007 growth inh 16%, Lassa entry inh 10%, NS1 function inh -8%, Marburg entry inh 12% and SARS PLpro yeast 3%.
For Clc1ccc(N=C2SCC3CCCCN23)cc1 (stereo not given) the results were 2A StopGo 17%, RE007 growth inh inconclusive, Lassa entry inh -11%[46.1 µM], NS1 function inh -8%, Marburg entry inh -29%[46.1 µM] and SARS PLpro yeast -13%.
Screening CCCOC(=O)c1c(N)sc2c1CCC2 returned Cruzain Triton -8.7%, 2A StopGo -3%, Cruzain inh noDet -11%, RE007 growth inh -22%, Lassa entry inh 8%, NS1 function inh -1%, Marburg entry inh inconclusive and SARS PLpro yeast -5%.
COc1cccc(-c2nnc(SCC(=O)N3CC(C)CC(C)C3)o2)c1 (stereo not given) was read as Cruzain Triton -3.7%, 2A StopGo -5%, Cruzain inh noDet 5%, RE007 growth inh -12%, NS1 function inh -78%, Marburg entry inh -4% and SARS PLpro yeast 5%.
`Nc1ccc(CN2CCOCC2)cc1` gave 2A StopGo 5%, RE007 growth inh 9%, Lassa entry inh 5%[46.1 µM], Marburg entry inh 21%[46.1 µM] and SARS PLpro yeast 0%.
For COc1ccc(OC)c(NC(=O)c2cc(S(=O)(=O)NCCc3ccc(Cl)cc3)ccc2F)c1 the results were Cruzain Triton 1.5%, 2A StopGo 38%[activator], Cruzain inh noDet -15% and Lassa entry inh -2%[46.1 µM].
Screening Fc1ccc(C2=Nn3c(Cc4ccccc4F)nnc3SC2)cc1 returned Cruzain Triton -1.5%, 2A StopGo 0%, Cruzain inh noDet inconclusive, RE007 growth inh -9%, Lassa entry inh -9%, NS1 function inh -2%, Marburg entry inh -7% and SARS PLpro yeast 6%.
`O=C(Nc1nc2ccc(S(=O)(=O)N3CCCC3)cc2s1)c1ccc(F)cc1` gave Cruzain Triton -0.3%, 2A StopGo 0%, Cruzain inh noDet -5% and Lassa entry inh -13%[46.1 µM].
For CC1CC1C(=O)OCC(=O)N(C)c1c(N)n(Cc2ccccc2)c(=O)[nH]c1=O (stereo not given) the results were 2A StopGo -8%, RE007 growth inh -11%, Lassa entry inh -14%, Marburg entry inh inconclusive and SARS PLpro yeast 3%.
`CN(CC(=O)Nc1c(Cl)cccc1Cl)C(=O)c1cccn1C` gave 2A StopGo -14%, RE007 growth inh 1%, Lassa entry inh 2%[46.1 µM], NS1 function inh -3%, Marburg entry inh 24%[46.1 µM] and SARS PLpro yeast -3%.
`Cn1c(SCC(=O)N/N=C/c2ccc(O)c(O)c2)nc2ccccc21` gave 2A StopGo inconclusive, RE007 growth inh -12%, NS1 function inh 1% and SARS PLpro yeast -2%.
Screening Cc1c(C(=O)Nc2ccc(S(=O)(=O)N3CCOCC3)cc2)cccc1[N+](=O)[O-] returned 2A StopGo -4%, RE007 growth inh 4%, NS1 function inh -10% and SARS PLpro yeast -12%.
O=S(=O)(Cc1ccccc1)N1CCC(c2nc(-c3cccs3)no2)CC1 was read as Cruzain Triton -5.2%, 2A StopGo -8%, Cruzain inh noDet 4%, RE007 growth inh -10%, Lassa entry inh 2%, NS1 function inh -44%, Marburg entry inh 1% and SARS PLpro yeast -1%.
Screening COc1cc(Cl)ccc1NC(=O)COc1ccccc1C(=O)N1CCN(c2ccc(O)cc2)CC1 returned Cruzain Triton 0.6%, 2A StopGo inconclusive, Cruzain inh noDet inconclusive, RE007 growth inh 0%, Lassa entry inh -25%, NS1 function inh -1%, Marburg entry inh inconclusive and SARS PLpro yeast 0%.
Screening Cc1cc(Br)c(NC(=O)CN2CC=C(c3ccccc3)CC2)c(Br)c1 returned 2A StopGo 0%, RE007 growth inh -16%, Lassa entry inh -3%[46.1 µM], Marburg entry inh inconclusive and SARS PLpro yeast -5%.
For COCCCNC(=O)C1Cc2cc(S(=O)(=O)N3CCCC3)ccc2N1C(C)=O (stereo not given) the results were 2A StopGo 5%, RE007 growth inh -3%, Lassa entry inh -4%[46.1 µM], NS1 function inh -2%, Marburg entry inh inconclusive and SARS PLpro yeast 10%.
